From PubChem
NS1 function inh – blocks influenza NS1 protein function | S. cerevisiae slowed by influenza A NS1, growth recovery by OD600 | Potency, µM (titrated, usually from 46.1 µM), for inactives: at the top dose activity, positive = more growth | 0.4% of 270,000 active; active means well fitted rising curve with a large enough effect; inconclusive means small, poorly fitted or top-dose-only effect; inactive means no such curve, though single readings can be large or run the other way; further: nearly all actives have a fitted effect of over 50% in size
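Read-out: OD600 growth recovery of NS1-expressing budding yeast. Cells grown overnight at 30C in -URA glucose medium, washed, resuspended and diluted 1:100 in 2% galactose assay medium, pH 6.0. Same strain lacking NS1 served as positive control.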
MARV entry inh – blocks Marburg virus binding to or entry into cells; Marburg virus pseudotyped entry inhibition, cell reporter; control for the full effect not named in the record; about a third of the inactives were read at about 46 µM; Potency, µM (highest dose often 37.8 µM), inactives show at the top dose activity change, negative = inhibition, hits mostly inhibitors; 1.8% of 300,000 active; AID 540276; active = well fitted inhibition curve with a large enough effect; inconclusive = small, poorly fitted or top-dose-only effect, or effect the other way; inactive = flat fitted curve, though single readings scatter; tested in HEK293 cells; about a fifth of its hits are not listed in these tables; further: on the % scale 0 is the no-effect control and ±100 the full control effect; luciferase read-out
2A StopGo – lowers the luciferase signal of an FMDV 2A StopGo reporter; human cells with a luciferase reporter of 2A StopGo recoding; control for the full effect not named in the record; Potency, µM (highest dose often 57.9 µM), for inactives: top-dose signal change, negative = less light; 1.2% of 410,000 active; active = well fitted falling curve with a large enough effect; inconclusive = small, poorly fitted or top-dose-only effect; inactive = no such curve, though single readings can be large or run the other way; tested in HEK293T cells; further: on the % scale 0 is the no-effect control and ±100 the full control effect; nearly all actives have a fitted effect of over 45% in size; luciferase light after 4 h
Cruzain inh noDet – blocks cruzain activity in detergent-free assay | P25779 | purified cruzain, Z-FR-AMC fluorescence, no detergent | Potency, µM, for inactives: max response, negative = inhibition, hits mostly inhibitors | 2.3% of 200,000 active | AID 1476;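 further: plate controls were enzyme without inhibitor for no effect and buffer without enzyme for full effect; nearly all actives have a fitted effect of over 40% in size; top concentration of the series not given in the record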
Target sequence (P25779 123-467 limits assumed): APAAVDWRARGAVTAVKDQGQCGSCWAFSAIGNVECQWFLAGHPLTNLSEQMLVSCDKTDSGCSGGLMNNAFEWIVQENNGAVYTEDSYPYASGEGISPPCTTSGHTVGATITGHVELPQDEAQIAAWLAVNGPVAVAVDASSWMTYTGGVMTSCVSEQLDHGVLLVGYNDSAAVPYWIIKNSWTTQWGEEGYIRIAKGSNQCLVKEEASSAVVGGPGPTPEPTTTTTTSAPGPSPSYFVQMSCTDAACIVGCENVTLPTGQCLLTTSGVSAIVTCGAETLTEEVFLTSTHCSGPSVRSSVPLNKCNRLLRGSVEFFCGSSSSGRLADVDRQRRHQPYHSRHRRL
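Detergent-free condition (0.00005% Triton X-100) in acetate buffer pH 5.5 with DTT. 1.5 nM enzyme and compound were pre-mixed 15 min, then 2 uM Z-FR-AMC substrate added; reaction progress from fluorescence change between first and third reads (60 s).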
Lassa entry inh – Lassa virus entry inhibition | Lassa virus pseudotype entry inhibition, cell reporter; control for the full effect not named in the record | Potency, µM (doses to about 37.9 µM), without a hit: at the highest dose activity change, negative = inhibition, hits mostly inhibitors | 1.2% of 300,000 active | AID 540256; active means well fitted inhibition curve with a large enough effect; inconclusive means small, poorly fitted or top-dose-only effect, or effect the other way; inactive means flat fitted curve, though single readings scatter; tested in HEK293 cells; further: on the % scale 0 is the no-effect control and ±100 the full control effect; nearly all actives have a fitted effect of over 50% in size; luciferase read-out
SARS PLpro yeast – blocks SARS-CoV papain-like protease in a yeast assay; S. cerevisiae expressing SARS-CoV PLpro, growth rescue; control for the full effect not named in the record; 0.19% of 330,000 active; Potency, µM (highest dose often 32.9 µM), for inactives: at the top dose activity, positive = growth rescue; active means well fitted rising curve with a large enough effect; inconclusive means small, poorly fitted or top-dose-only effect; inactive means no such curve, though single readings can be large or run the other way; further: 0% is about no effect; nearly all actives have a fitted effect of over 55% in size; growth read by luminescence after 48 h
Cruzain Triton – inhibitors of Trypanosoma cruzi cruzain with detergent; P25779; purified cruzain, Z-FR-AMC fluorescence, 0.01% Triton; Potency, µM, for the others: max response, negative = inhibition, most hits filed as inhibitors; 0.43% of 200,000 active;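 further: plate controls were neutral wells for no effect and buffer without enzyme for full effect; nearly all actives have a fitted effect of over 40% in size; top concentration of the series not given in the record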
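Detergent-containing run (0.01% Triton X-100) in acetate buffer pH 5.5 with 5 mM DTT: enzyme at 1.5 nM final, 15 min compound preincubation at room temperature, then 2 uM Z-FR-AMC substrate. Activity taken as 60 s fluorescence increase at 360/450 nm.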
RE007 growth inh – less growth of the S. pombe RE007 Vpr strain | S. pombe RE007 Vpr strain, BacTiter-Glo ATP luminescence, 24 h; control for the full effect not named in the record | Potency, µM (top dose mostly 92.2 µM), without a hit: at the top dose activity change, negative = less growth | 0.21% of 360,000 active; active = well fitted falling curve with a large enough effect; inconclusive = small, poorly fitted or top-dose-only effect; inactive = no such curve, though single readings can be large or run the other way;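 further: on the % scale 0 is the no-effect control and ±100 the full control effect; nearly all actives have a fitted effect of over 50% in size; the assay follows cell death caused by Vpr and the record does not say whether a fall means rescue or toxicity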
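Fission yeast strain RE007, carrying one chromosomally integrated HIV-1 vpr copy, was seeded at OD 0.01 in PMG+AL medium with 23 nL pinned compound. After 24 h at 30 °C and 99% humidity, viability was read by BacTiter-Glo luminescence.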
Active calls of the source: *; ? = inconclusive; / = not tested or not shown; & = joins results of further samples; [ ] = another dose, or the depositor's remark. Unless noted, the call rests on the fitted dose curve; in most records, active means well fitted curve in the direction sought with a large enough effect; inconclusive means small, poorly fitted or top-dose-only effect, or another doubt; inactive means no such curve, though single readings can be large; an effect the other way counts as inactive or inconclusive. Potency means the concentration at half of the fitted maximal effect.

SMILES | NS1 function inh | MARV entry inh | 2A StopGo | Cruzain inh noDet | Lassa entry inh | SARS PLpro yeast | Cruzain Triton | RE007 growth inh
CCn1c(SCC(=O)Nc2cc(NC(C)=O)ccc2OC)nnc1-c1ccccn1 | 4% | 9% | -24% | 3% | 12% | -5% | 1.7% | 3%
COC(=O)c1ccccc1NC(=O)c1ccc2c(Cl)c3c(nc2c1)CCCC3 | / | 4%[46.1 µM] | 3% | -5% | 7%[46.1 µM] | / | -0.1% | /
COC(=O)c1c(NC(=O)c2ccc(OC)cc2OC)sc2c1CCCCC2 | / | 21%[46.1 µM] | 6% | 4% | 11%[46.1 µM] | / | -13% | /
CC(C)c1nnc(NC(=O)CSc2nc3ccccc3[nH]2)s1 | / | 14%[46.1 µM] | 3% | / | ? | -3% | / | -13%
CC(=O)c1c(C)oc2ccc(N(C(=O)Oc3ccccc3)S(=O)(=O)c3ccccc3)cc12 | / | / | 0% | 2% | ? | / | -2.6% | /
OC(c1ccc(Cl)cc1)c1nccc2ccccc12 (stereo not given) | -50% | / | 7% | / | / | -1% | / | 4%
CCN(CC)S(=O)(=O)c1ccc2c(c1)nc(CN(C)C(=O)Nc1cccc(Cl)c1)n2C | / | / | -25% | ? | ? | / | -2.7% | /
Cc1ccc(Cn2ncc3c(N4CCN(C)CC4)ncnc32)cc1 | / | 22%[46.1 µM] | ? | / | -20% | 0% | / | 2%
Cc1cc(C)c2cc(CN(CCO)C(=O)Nc3ccc(Cl)cc3)c(=O)[nH]c2c1 | -55% | 11µM* | ? | ? | ? | -1% | -11% | -4%
COc1ccc(C)cc1NC(=O)Nc1cccc(-c2noc(C)n2)c1 | / | / | -29% | -17% | 13%[46.1 µM] | / | -8.5% | /
COC1CCCCC1Nc1cc(C)cc(C)c1 (stereo not given) | 1% | 4% | / | -7% | -16% | 1% | 6.7% | -17%
O=C(CSC1=NS(=O)(=O)c2ccccc2N1)Nc1ccccc1F | / | -3% | 50%[activator] | / | 0%[46.1 µM] | 3% | / | 29%
O=S(=O)(Cc1ccccc1)N1CCCC1 | 1% | 17% | 4% | 1% | 2% | 7% | 1.3% | 3%
CCOC(=O)CSc1nnc(CNC(=O)c2cc(OC)c(OC)c(OC)c2)n1C | 1% | ? | 1% | -1% | 5% | -17% | -0.2% | -22%
Cc1ccc(C)c(Cn2c3ccccc3c3cnn(CC(=O)NCCN4CCOCC4)c(=O)c32)c1 | 1% | ? | -15% | / | ? | -3% | / | 6%
Cc1cc(C)n(CCNC(=O)CC2C(=O)NCCN2CC2CCCCC2)n1 (stereo not given) | 0% | 3%[46.1 µM] | 12% | / | 6% | 0% | / | 0%
Cc1onc(-c2ccccc2Cl)c1C(=O)N1CCN(S(=O)(=O)c2ccc(F)c(F)c2)CC1 | 21% | 2% | -26% | / | 1% | 6% | / | -10%
CNCC[C@H](Oc1ccccc1OC)c1ccccc1 | / | 18µM* | -20% | 3%&-10% | / | / | -2.5%&0.0% | /
CCC(=NCc1ccc(Cl)c(Cl)c1)c1nc(-c2ccco2)oc1O | -23% | ? | -25% | -15% | ? | -40% | -9.5% | 7%
O=C1COc2ccc(C(=O)/C=C/c3ccccc3)cc2N1 | -7% | 6% | -1% | -21% | ? | -24% | -4.8% | 3%
COC(=O)CCCC1=CC2=C(c3ccccc3)C(=O)C(C)(OC(=O)C3CCCC3)C(=O)C2=CN1CCc1c[nH]c2ccccc12 (stereo not given) | ? | / | 4% | / | / | 5% | / | -11%
COc1cc(SC)ccc1C(=O)Nc1ccc(Cl)cn1 | -4% | 1.1µM* | 10µM* | / | ? | -1% | / | -4%
C#CCOCCOCCOCCNc1nc(N2CCOCC2)nc(N2CCN(C(=O)[C@H](CCC(=O)O)n3cc(C(N)[C@H](C)CC)nn3)CC2)n1 (stereo not given in full) | 5% | / | 6% | / | / | 1% | / | 7%
CC(=O)N1CC(=O)N(CC(=O)Nc2ccc(Br)cc2)C1=S | -6% | -1%[46.1 µM] | 0% | / | -9%[46.1 µM] | 2% | / | -17%
CCOC(=O)N1CCN(CCC(=O)Nc2ccc(F)c(F)c2)CC1 | 2% | ? | -13% | / | -1% | -3% | / | 0%
O=C(CC1CCCCC1)NCCS(=O)(=O)N1CCN(c2ccccc2)CC1 | / | 0%[46.1 µM] | -18% | / | 3% | 1% | / | -1%
COc1cc(Cl)c(C)cc1NC(=O)CSC | -9% | 1%[46.1 µM] | -11% | 4% | 8% | -2% | 0.4% | -7%
CCOC(=O)C1(Cc2ccc(OC)cc2)CCN(C(=O)c2ccoc2C)CC1 | -4% | / | -5% | / | / | -1% | / | -15%
CC(OC(=O)c1cc(=O)[nH]c2ccccc12)C(=O)c1ccccc1 (stereo not given) | 0% | 9%[46.1 µM] | 4% | / | 22%[46.1 µM] | 6% | / | 11%
COc1ccc(OCCCC(=O)Nc2cc(Cl)ccc2-n2cncn2)cc1 | / | 28% | -20% | / | 10% | 2% | / | 1%
Cc1ccc(C(=O)COc2ncnc3cc(Cl)ccc23)cc1 | 0% | / | 38%[activator] | / | / | 1% | / | -21%
CCC(=O)c1ccc(OCC(=O)OCC(=O)N2c3ccccc3NC(=O)C2(C)C)cc1 | / | 16%[46.1 µM] | 18% | / | 11% | / | / | -8%
c1ccc(-n2ncc3c(NC4CCCC4)ncnc32)cc1 | / | / | 34%[activator] | -13% | ? | / | -0.3% | /
Cc1ccc(C)c(NC(=S)N2CCN(c3ccccn3)CC2)c1 | -5% | / | 3% | / | / | 1% | / | -8%
COc1cc(/C=N/NC(=O)c2cccnc2)cc2c1OCO2 | 2% | / | -3% | / | / | 2% | / | 8%
NS(=O)(=O)c1ccc(CNC(=O)/C=C/c2cccc(Cl)c2)cc1 | 10% | 27% | -17% | 15% | 1% | 21% | -3.2% | 6%
Cc1ccc(NC(=S)N2CCN(S(=O)(=O)c3ccc(F)cc3)CC2)cc1 | 15% | 22% | 24% | / | -1% | 6% | / | 1%
CC(=O)Oc1ccc(C2(C)CC(C)(C)Oc3cc(OC(C)=O)ccc32)c(OC(C)=O)c1 (stereo not given) | 9% | -13%[46.1 µM] | -27% | / | -26%[46.1 µM] | 1% | / | -18%
Cc1ccc(C)c(S(=O)(=O)N2CCN(C(=O)c3sccc3C)CC2)c1 | / | ? | -24% | / | -12% | 5% | / | 7%
COc1ccc(CN(C)C(C)C(=O)NC2CCCc3ccccc32)cc1 (stereo not given) | / | ? | -2% | / | ? | 1% | / | 11%
COc1ccccc1OCc1ccc(C(=O)Nc2ccncc2)o1 | -10% | ? | 14µM* | -10% | ? | 1% | -5.4% | -3%
CCOc1ccccc1N1CC(C(=O)NC2CCCCCC2)CC1=O (stereo not given) | / | 21%[46.1 µM] | 4% | / | 0%[46.1 µM] | 0% | / | -4%
Cc1ccc(N(CCC(=O)O)S(=O)(=O)c2ccc(C)cc2)cc1 | 18% | ? | 0% | 7% | -11% | 8% | -2.5% | 14%
N#C/C(=C1/CCCCCN1)c1nnc2n1CCCCC2 | 2% | 8% | / | -8% | 16% | 2% | 0.7% | -3%
Cc1c(NC(=O)c2ccc(S(=O)(=O)N3CCOCC3)cc2)cccc1[N+](=O)[O-] | / | -7% | -28% | / | 1% | -2% | / | -15%
CCCS(=O)(=O)c1c(S(=O)(=O)CCC)c2c(C)cccn2c1C(=O)OC | -2% | -18% | / | 1% | -2% | 3% | -8.2% | 3%
Cc1nc2ccccc2n1CC(=O)OCC(=O)NCc1ccccc1 | 1% | -4% | 5% | / | 5% | 1% | / | -4%
CN(C)S(=O)(=O)c1ccc(N2CCCC2)c(C(=O)OCC(=O)NC2CCCCC2)c1 | / | 19% | 7% | / | 3% | -2% | / | -13%
COc1ccc(-c2nnc(SCC(=O)NCc3ccccc3)nc2-c2ccc(OC)c(OC)c2)cc1OC | / | / | -3% | ? | ? | / | -6.7% | /
Cc1ccc(OCC(=O)Nc2cc(-c3cccc(C)c3)nn2-c2ccccc2)cc1 | / | / | 17% | 7% | 7%[46.1 µM] | / | -2.0% | /
CC(C)C12CN3CC(C(C)C)(CN(C1)C3c1ccc3c(c1)OCO3)C2=O (stereo not given) | 1% | 0% | / | -3% | 2% | -4% | 1.5% | 19%
N#Cc1nc(-c2ccccc2)oc1NCCCn1ccnc1 | -2% | -12%[46.1 µM] | 23% | / | ? | -1% | / | -2%
COc1ccc(C(=O)Nc2ccc3nc(N4CCC(C)CC4)cc(C)c3c2)cc1 | / | ? | 32µM* | ? | 13%[46.1 µM] | / | -25% | /
COC(=O)c1c(NC(=O)CCCOc2cccc(C)c2)sc2c1C(C(=O)OC)CC2 (stereo not given) | / | / | ? | 25% | -8%[46.1 µM] | / | -9.0% | /
O=C(CCS(=O)(=O)c1cc2c3c(c1)CCN3C(=O)CC2)NCc1ccc(F)cc1 | / | / | 5% | -3% | -3%[46.1 µM] | / | 0.1% | /
CCOc1ccc(S(=O)(=O)N(CC(=O)NCC(F)(F)F)Cc2ccco2)cc1 | 6% | ? | 17% | -15% | -9% | 4% | -2.1% | 3%
CCN1CCc2c(sc(NC(=O)CN3C(=O)c4ccccc4C3=O)c2C(N)=O)C1 | / | -1% | -3% | / | 11% | 0% | / | 3%
C/C(O)=C(\N=Nc1cc(C)ccc1O)C(N)=O | -3% | -20%[46.1 µM] | 4% | / | -7% | -2% | / | 1%
COc1ccc(C)cc1NC(=O)CO/N=C(\N)CC(=O)NC1CCCCC1 | / | -27% | -22% | / | 16% | 5% | / | 0%
O=C(Nc1ccccc1N1CCN(c2ccccc2)CC1)c1cccc(F)c1 | -38% | 2% | ? | -8% | ? | -21% | -2.2% | -1%
C/C(CC(=O)Nc1ccc(Cl)cc1)=N\NC(=O)C(=O)NCCO | -4% | 22% | -24% | 3% | 8% | 1% | -0.4% | 4%
O=C(CSc1nc(C(F)(F)F)cc(=O)[nH]1)N1CCOCC1 | / | 14% | -7% | / | -1%[46.1 µM] | 3% | / | 11%
COC(CNC(=O)c1ccc(-n2c(=S)[nH]c3ccccc3c2=O)cc1)OC | 6% | 8%[46.1 µM] | -11% | / | / | 2% | / | 14%
